HNF4A DNA FP: change in binding of human HNF4 alpha to DNA; HNF4a-FITC DNA binding, fluorescence polarization, 1 h; activity change, % at 10 µM; actives 0.3% (n = 360,000); AID 1224865; in the data active = activity change above about 30%, passing the limit was not always enough;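 also: controls were the assay level and a saturating level of protein; the project sought stronger binding though the title names inhibitors; some compounds called inactive have numbers as strong as hits; positive values seem to mean higher polarization but the record does not say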
E coli growth: blocks Escherichia coli growth; OD600, 23 h; hits give low values; OD600 absorbance (concentration not given with the values); actives 0.21% (n = 330,000); AID 1053175;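 active = OD600 absorbance below the run mean of sample wells minus 3.6 SD, in any replicate, cut at about 0.56 in these data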;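 also: stock transfer was 300 nL into about 60 µL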
LANA-H2B inh: blocks KSHV LANA binding to histone H2A/H2B; Q9QR71; cell-free LANA-H2A/H2B peptide, fluorescence polarization; inhibition, % (test concentration not listed); actives 0.6% (n = 320,000); AID 2629; in the data active = inhibition mostly above about 10%, no sharp cut-off; inactive = mostly below about 6.7%;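 also: stock transfer was 7.5 nL into about 10 µL; 0% = median of vehicle wells and 100% = median of positive control wells; one replicate is shown; the record names a cut of 25% in any replicate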
ALR H2O2 inh: inhibitors of human sulfhydryl oxidase ALR | P55789 | purified ALR, DTT oxidation, H2O2 HRP-luminol luminescence | inhibition, % (no concentration beside the values) | actives 3.8% (n = 290,000) | AID 485317;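 active = mean and each replicate at 75% or more; inconclusive = only one of the two met; inactive = neither met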;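 also: stock transfer was 7.5 nL into about 7.5 µL; 0% = neutral wells and 100% = wells with inactivated enzyme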
Target sequence (P55789 whole entry, looked up): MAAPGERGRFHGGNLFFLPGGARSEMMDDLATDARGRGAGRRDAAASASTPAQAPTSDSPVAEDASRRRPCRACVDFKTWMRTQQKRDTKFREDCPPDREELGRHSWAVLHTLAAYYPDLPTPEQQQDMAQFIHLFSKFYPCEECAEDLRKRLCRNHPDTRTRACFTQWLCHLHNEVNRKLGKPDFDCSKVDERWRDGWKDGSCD
FGF22 binding: binders of recombinant human FGF22 by thermal shift. Q9HCT0. SYPRO orange fluorescence; percent of sucrose octasulfate shift, DMSO zero. calls only at 9.99 µM. actives 1.5% (n = 340,000);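 active = melting point raised past a set limit in the mean and every replicate; inconclusive = no clear call; three in four hits are not shown here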
Target sequence (Q9HCT0 whole entry, looked up): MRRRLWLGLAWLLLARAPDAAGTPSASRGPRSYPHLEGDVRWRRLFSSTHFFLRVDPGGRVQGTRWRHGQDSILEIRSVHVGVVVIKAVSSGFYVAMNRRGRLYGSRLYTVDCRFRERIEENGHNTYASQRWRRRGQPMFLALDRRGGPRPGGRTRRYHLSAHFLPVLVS
UCH37 inh: inhibitors of human deubiquitinating enzyme UCH37 | Q9Y5K5 | purified proteasome/UCH37, Ub-AMC cleavage fluorescence | inhibition, % (no concentration beside the values) | actives 0.33% (n = 330,000) | AID 588478;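 active = mean of two replicates above 20%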;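 also: 0% = compound-free wells with enzyme and 100% = wells lacking proteasome; stock transfer was 100 nL into about 20 µL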
Target sequence (Q9Y5K5 whole entry, looked up): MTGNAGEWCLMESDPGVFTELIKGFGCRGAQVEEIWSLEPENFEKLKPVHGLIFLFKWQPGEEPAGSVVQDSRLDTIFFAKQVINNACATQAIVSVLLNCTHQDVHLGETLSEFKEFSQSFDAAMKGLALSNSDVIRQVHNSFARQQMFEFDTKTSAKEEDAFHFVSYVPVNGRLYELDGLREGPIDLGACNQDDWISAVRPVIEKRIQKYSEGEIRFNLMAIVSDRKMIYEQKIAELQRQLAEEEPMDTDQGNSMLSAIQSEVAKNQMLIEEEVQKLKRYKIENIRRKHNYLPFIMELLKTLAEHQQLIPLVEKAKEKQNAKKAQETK
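Material: human UCH37 enzyme supplied as purified proteasome complex. Measure: % inhibition of Ub-AMC cleavage fluorescence. Medium: pH 7.4 Tris-HCl (50 mM) with ovalbumin, ATP-MgCl2, DTT. Times: 30 min preincubation with enzyme, 25 min cleavage at room temperature. Detection: AMC fluorescence intensity at 355/460 nm.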
B2AR ag: activates human beta-2 adrenergic receptor causing internalization. P07550. Am2.2-beta2AR cells, FAP receptor internalization, flow cytometry; reference of the scale not given here. response, % (test concentration not listed). actives 0.43% (n = 340,000). AID 504454;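 active = response above a set limit, near 3 SD of response in nonfluorescent compounds, cut at about 42% in these data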;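 also: stock transfer was 100 nL into about 11 µL; a reference agonist was the positive control; negative values mostly stem from fluorescent compounds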
Starred values were filed as active, the others as inactive; i = inactive; ? = inconclusive; nt = no result given.

Values run as follows: LANA-H2B inh	HNF4A DNA FP	UCH37 inh	ALR H2O2 inh	B2AR ag	E coli growth	FGF22 binding
CC(OC(=O)c1ccccc1N1C(=O)C2C3CCC(C3)C2C1=O)C(=O)c1ccccc1 (centres undefined)
→ 1.5	3.7	3.8	-17	2	0.67	nt
Cn1c(SCC(=O)NCc2ccco2)nnc1-c1ccccc1
→ -6.4	-1.8	1.9	-3	-4	0.77	nt
CCSc1ncc(Cl)c(C(=O)Nc2ccccc2Cl)n1
→ 1.4	-0.7	-0.2	7	-3	0.7	i
Cc1cc(=O)[nH]c(SCc2ccc(Cl)cc2Cl)n1
→ 0.3	-1.6	6.2	-8	0	0.66	i
CC1CCCCN1Cc1nc2ccccc2c(=O)[nH]1 (centres undefined)
→ 2.6	2.1	4.2	-2	1	0.69	nt
O=C(Cn1ccc([N+](=O)[O-])n1)N1CCCCC1
→ -1.8	7.4	4.1	-3	-6	0.68	i
CCCCCn1c(NCc2ccco2)nc2ccccc21
→ 6.2	0.6	3.9	45	5	0.7	i
CSc1ncccc1C(=O)N1CCCC(CCC(=O)NCc2ccccc2F)C1 (centres undefined)
→ 3.9	1.5	0.1	-2	0	0.68	i
O=C(COC(=O)c1cncc(Br)c1)NCC1CCCO1 (centres undefined)
→ 4.3	-7.5	1.6	nt	6	0.7	nt
CCOc1ccc(NC(=O)COc2ccc(C(=O)NC3CCCc4ccccc43)cc2OC)cc1 (centres undefined)
→ 6.5	0.4	2.6	-2	0	0.67	i
C[C@H](CO)N1C[C@H](C)[C@@H](CN(C)Cc2ccncc2)Oc2ccc(NC(=O)Cn3cnnn3)cc2C1=O
→ -2.2	-1.2	-0.2	-2	-4	nt	i
CCOc1ccc(CN2CCN(Cc3c(C)nn(CC)c3C)CC2CCO)cc1 (centres undefined)
→ 3.8	1.9	0.7	nt	-9	0.65	i
Cc1ccc(SCC(=O)Nc2nncs2)cc1
→ 1.7	2.8	2.6	-6	-1	0.67	i
COc1ccc(CNC(=O)CCS(=O)(=O)c2ccc(Br)cc2)cc1
→ -0.2	-4.6	-0.1	-8	1	0.68	i
O=C(CCNS(=O)(=O)c1cccc2nsnc12)NCc1cccs1
→ -2.5	0.1	2.0	-4	-4	0.66	nt
Cc1ccc2c(Cl)c(C(=O)N/N=C/c3cccn3C)sc2c1
→ 7.9	3.4	nt	nt	2	nt	i
O=C1C(c2ccc(F)cc2)N(CC2COc3ccccc3O2)C(=O)CN1C1CCCCC1 (centres undefined)
→ 3.1	-4.2	-1.2	-11	-8	0.73	nt
CC/C(C)=N/Oc1nc(C)cc(C)n1
→ 5.7	2.5	nt	-1	-4	nt	i
COc1cc(C(F)(F)F)c(C(=O)NCc2cccc(Cl)c2)cn1
→ -1.9	-6.8	-1.4	0	-4	0.69	i
Cc1cc(C)n2nc(Sc3ncccc3[N+](=O)[O-])nc2n1
→ -4.4	0.8	6.6	-8	-8	0.63	i
CCOCCCNC(=O)C(NC(=O)c1ccc(NC(C)=O)cc1)c1ccc(C)cc1 (centres undefined)
→ 1.2	-3.4	-0.8	-12	-5	0.68	i
COc1ccc(CCNC(=O)Cn2c([N+](=O)[O-])cnc2C)cc1OC
→ 2.9	-9.2	2.8	-8	0	0.68	i
CCOc1ccc(NC(=O)Nc2cccnc2)cc1
→ 0.6	-0.2	0.9	-15	1	0.65	i
Cc1onc(-c2c(Cl)cccc2Cl)c1C(=O)N1CCSCC1
→ -3.2	1.7	1.4	-3	-7	0.68	i
CC1CCN(c2nc(CN3CCCCC3)nc3scc(-c4ccccc4)c23)CC1
→ -0.4	3.6	1.1	-2	5	0.62	nt
CCn1cc([N+](=O)[O-])c(C(=O)Nc2cc(C)on2)n1
→ 2.5	-0.6	5.5	-4	-3	0.79	nt
Cc1ccc2c([N+](=O)[O-])cccc2n1
→ 4.2	-1.5	1.1	11	-7	0.7	nt
COc1ccc(Cc2nc3ccc(C(=O)N(C)CCn4ccnc4)cc3o2)cc1OC
→ -2.4	-0.2	1.1	1	-2	0.69	i
O=C(CSc1ncn[nH]1)Nc1nc(-c2cccc([N+](=O)[O-])c2)cs1
→ -0.2	0.8	1.0	3	-2	0.67	i
CCOc1ccccc1/C=N/NC(=O)c1c(C)nc2ccc(Br)cn12
→ -4.4	1.7	nt	nt	2	nt	i
N#C/C(=N\Nc1cccc(C(F)(F)F)c1)C(=O)c1ccsc1
→ -0.5	-2.0	nt	4	14	nt	i
COC(=O)C(=O)Nc1nnc(COc2ccccc2)s1
→ -1.3	-2.9	5.1	0	29	0.73	nt
C(=C/c1ccnc2nc(SC/C=C/c3ccccc3)nn12)/c1ccccc1
→ -2.6	1.4	-14	0	-1	0.75	nt
COc1cccc2sc3ccc(C#CC4(N)CCCCC4)cc3c(=O)c12
→ 0.3	5.1	-3.9	3	26	0.62	i
CC(C)c1ccc(C(CC(=O)O)NC(=O)c2cccs2)cc1 (centres undefined)
→ 2.4	2.2	6.0	-12	1	0.69	i
COc1cc2c(cc1OC)C(c1ccc(Cl)cc1)CC(=O)N2 (centres undefined)
→ -5.7	3.3	2.5	-2	4	0.67	i
Cc1ccc(C(=O)O)cc1S(=O)(=O)N1CCCC1
→ -0.7	3.1	1.1	nt	1	0.66	nt
CC(SCc1ccccc1)C(=O)N/N=C/c1ccc2c(c1)OCO2 (centres undefined)
→ -4.6	-0.1	nt	-5	7	nt	nt
CCCNC(=O)c1cccc(Cn2nc(C)c(Br)c2C)c1
→ 2.5	-0.3	4.5	25	-2	0.72	nt
CCN1CCN(CC(=O)Nc2cc(S(=O)(=O)N(CC)c3ccccc3)ccc2Cl)CC1
→ 2.4	-0.8	1.0	-7	5	0.62	i
CCCC1(CCC)NC(=O)N(CC(=O)c2cc(C)n(-c3ccc4c(c3)OCO4)c2C)C1=O
→ -1.8	-1.2	0.0	-5	-1	0.68	nt
Cc1ccc2c(c1)nnn2C1CCN(CC(=O)NCc2ccccc2F)CC1
→ -4.7	1.6	2.5	nt	1	0.69	i
Cc1nc2sc(C(c3ccc(Cl)cc3)N3CCN(C(=O)c4ccco4)CC3)c(O)n2n1 (centres undefined)
→ 1.9	0.5	1.1	-4	-11	0.76	nt
CC(=O)Oc1ccc2c3c(c(=O)oc2c1)CCCC3
→ -1.8	-0.4	i	-4	-6	0.68	i
COc1cc(C(=O)NCC(C)C)c([N+](=O)[O-])cc1OC
→ -0.4	3.5	7.8	-7	1	0.72	nt
COc1ccccc1OCC(=O)N1CCN(S(=O)(=O)c2ccc(Cl)cc2)CC1
→ nt	1.9	4.2	nt	-2	0.65	nt
CN(Cc1ccccc1F)C(=O)c1cccc(NC(=O)CC2SC(N3CCCCC3)=NC2=O)c1 (centres undefined)
→ nt	8.3	1.5	nt	12	0.68	i
CCOC(=O)CCCNC(=O)CSc1nc2ccc(OCC)cc2[nH]1
→ -9.0	3.2	3.5	-23	-4	0.72	i
CC(NS(=O)(=O)c1ccc(Br)cc1)C(=O)Nc1nc2ccccc2[nH]1 (centres undefined)
→ 6.7	5.4	nt	-4	-10	nt	i
C[C@@H]1CC[C@]2(O[C@H](CCO)C[C@H](O)[C@H]2O)O1
→ -2.7	-0.9	2.4	nt	0	nt	i
O=C(c1ccco1)c1cn(CC(=O)N2CCCc3ccccc32)c2ccccc12
→ 3.1	0.5	-2.3	-16	-9	0.74	nt
CCn1c(COc2ccccc2C)nnc1SCC(=O)CC(=O)Nc1ccccc1OC
→ -0.2	1.5	1.9	?	-4	0.72	nt
CCNS(=O)(=O)c1ccc(NC(=O)c2ccc(Cn3cc([N+](=O)[O-])cn3)o2)cc1
→ 2.7	-1.7	3.5	-4	2	0.64	i
CC(C)C(=O)Nc1ccccc1Cc1ccccc1
→ 5.0	1.4	-0.2	-12	-8	0.65	i
Cc1ccccc1N1C(=O)Cc2ccccc2C1=O
→ 0.4	0.8	-7.4	15	6	0.71	i
CCOC(=O)c1cnc2c(C#N)c(C)nn2c1C
→ 7.7	-1.1	-1.5	-4	-6	0.66	nt
C=CCn1c(SCC(N)=O)nnc1-c1cc2c(s1)CCC(CC)C2 (centres undefined)
→ 0.4	0.2	-4.2	nt	-14	0.73	nt
O=C(CNC(=O)c1ccccc1F)NCCN1C(=O)S/C(=C\c2ccccc2Cl)C1=O
→ 0.3	1.2	6.3	-3	-5	0.73	i
N#CCN1CCC2(O)CCCCC2C1c1ccc2c(c1)OCO2 (centres undefined)
→ -4.1	5.6	4.1	nt	-5	0.64	i
CC(=O)Nc1ccc(C(=O)Nc2nc(-c3cc(C)n(Cc4ccccc4)c3C)cs2)cc1
→ 5.8	5.0	1.5	-4	8	nt	i

Sorted by length of the SMILES (low to high): three of the compounds above.
Values run as follows: LANA-H2B inh	HNF4A DNA FP	UCH37 inh	ALR H2O2 inh	B2AR ag	E coli growth	FGF22 binding
Cc1ccc(SCC(=O)Nc2nncs2)cc1
→ 1.7	2.8	2.6	-6	-1	0.67	i
CC(NS(=O)(=O)c1ccc(Br)cc1)C(=O)Nc1nc2ccccc2[nH]1 (centres undefined)
→ 6.7	5.4	nt	-4	-10	nt	i
CCNS(=O)(=O)c1ccc(NC(=O)c2ccc(Cn3cc([N+](=O)[O-])cn3)o2)cc1
→ 2.7	-1.7	3.5	-4	2	0.64	i

Later entries
Values run as follows: LANA-H2B inh	HNF4A DNA FP	UCH37 inh	ALR H2O2 inh	B2AR ag	E coli growth	FGF22 binding
Cc1cc(NC(=O)c2ccoc2C)ccc1Br
→ -2.5	-0.8	5.2	89*	-6	0.64	i
NC(=O)C1CCN(C(=O)CSCc2ccccc2Cl)CC1
→ 0.7	5.2	-1.5	-1	9	0.68	nt
CCOC(=O)[C@H]1[C@H]2COc3ccc(Cl)cc3[C@@H]2N2C(=O)[C@@H](C)NC(=O)[C@@]12C
→ -4.1	2.9	5.8	4	-6	nt	i
CCc1c(C2(O)CCCCC2)[nH]c2cnccc12
→ 8.0	-1.5	-101	2	3	0.65	i
CC(NC(=S)Nc1ccc(OC(F)F)c(Cl)c1)C(C)(C)C (centres undefined)
→ -2.0	1.7	3.6	-9	16	0.66	i
COC(=O)CNc1nc(C2CC2)nc2c1nnn2Cc1ccccc1Cl
→ 1.8	0.2	3.3	4	-7	0.75	nt
CC1(c2ccccc2)NC(=O)N(CC(=O)Nc2cc(S(=O)(=O)N3CCOCC3)ccc2Cl)C1=O (centres undefined)
→ -2.6	0.6	5.4	-6	-2	0.71	nt
Cc1ccc(Nc2c(-c3ccc(N(C)C)cc3)nc3ncccn23)cc1
→ -1.0	8.7	-8.7	68	-4	0.66	i
O=C(NCCCN1CCOCC1)C1CCN(S(=O)(=O)c2ccccc2)CC1
→ -1.1	0.8	5.0	-4	-2	0.65	i
CN1CCN(NC(=O)CN2C(=O)/C(=C/c3ccccc3F)SC2=S)CC1
→ -5.3	nt	9.3	14	nt	0.65	i
COc1cccc(OCCSc2nc(N)cc(N)n2)c1
→ -6.4	-2.0	-1.3	17	12	0.67	nt

Screens: PubChem, several laboratories

An excerpt. The share of hits here may be higher or lower than overall.
